Mtb hypoxia inh – Mtb hypoxia fluorescent reporter inhibition. 300,000 tested, 0.1% active. fluorescence inhibition, % (test concentration not listed). M. tuberculosis hypoxia-regulated fluorescent reporter, fluorescence;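 active = 35 to 45% if threefold the growth effect, above 45% if 1.5-fold the growth effect; inactive = the rest, general growth blockers included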;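 note: wells of about 50 µL received 100 nL stock; 0% = vehicle wells and 100% = reference inhibitor wells; whole bacteria with a GFP reporter of the hypoxia response; strong numbers were not always called active; many hits fall short of the cut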
Autofluor counter – counter-screen for toxin protease inhibitors: compound fluorescence; compound autofluorescence counterscreen, microsphere flow cytometry; active compounds read high; fluorescence intensity (test concentration not listed); 360,000 tested, 3.1% active; AID 624483;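 active = at least 3 SD above the mean of all compounds, about 16000 in these data; inconclusive = too few beads counted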;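 note: 100 nL of 1 mM stock went into each well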
ugtP null kill – growth inhibition of S. aureus ugtP deletion strain | S. aureus RN4220 ugtP deletion, OD600 growth, 16 h; some inactives read as strong as hits | 330,000 tested, 0.54% active | AID 1259309 | growth inhibition, % (concentration not given with the values);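 active = z-score under -3 and OD600 up to 0.15 on both plates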;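 note: plate controls were untreated wells for no effect and antibiotic for full effect; wells of about 80 µL received 100 nL stock; the first replicate is given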
BJeLR viability – BJeLR cell viability loss. BJeLR (HRASV12) viability, CellTiter-Glo ATP luminescence, 48 h; reference of the scale not given here. inhibition, % (no concentration beside the values). 300,000 tested, 0.17% active. AID 1554;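 active = replicate mean above 50%; inconclusive = above 50% but judged a plate artefact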;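 note: 50 nL library stock added to about 25 µL; numbers are from one replicate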
PrP UTR inh – inhibition of PrP 5' UTR reporter expression; cell-based PrP 5' UTR mRNA reporter, plate reader; inhibition, % (no concentration beside the values); 340,000 tested, 0.35% active;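 active = every replicate at 50% or more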;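 note: 0 = median of the neutral control wells; tested in H4 reporter cells; numbers are from one replicate; inactives centre near -14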
Sa RN4220 lethal – kills Staphylococcus aureus RN4220 | S. aureus RN4220 growth, OD600, 16 h | 330,000 tested, 0.33% active | inhibition, % (no concentration beside the values) | AID 1259311;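 active = z-score of -3 or lower and OD600 up to 0.18 on both plates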;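 note: plate controls were untreated cells for no effect and reference antibiotic for full effect; stock transfer was 100 nL into about 80 µL; one replicate is shown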
Mtb hypoxia inh growth – also measured in Mtb hypoxia inh; calls as there; growth inhibition, %; measured here: M. tuberculosis growth (absorbance);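 0% = vehicle and 100% = reference antibiotic; read after six days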
* hit, by the source's call; ? = inconclusive; · = not tested or not shown; & = joins results of further samples.

The opening two entries as a preview:
smiles	Mtb hypoxia inh	Mtb hypoxia inh growth	Autofluor counter	ugtP null kill	BJeLR viability	PrP UTR inh	Sa RN4220 lethal
COc1ccccc1NC(=O)CSCc1cc(=O)n2c(C)csc2n1	-5	-1	5322	6	-2	2	3.7
Cc1cc(C)c(C#N)c(SCC(=O)NC2CC2)n1	2	-1	16095	3	-7	-13	2.3

The list itself, previewed entries included:
smiles	Mtb hypoxia inh	Mtb hypoxia inh growth	Autofluor counter	ugtP null kill	BJeLR viability	PrP UTR inh	Sa RN4220 lethal
COc1ccccc1NC(=O)CSCc1cc(=O)n2c(C)csc2n1	-5	-1	5322	6	-2	2	3.7
Cc1cc(C)c(C#N)c(SCC(=O)NC2CC2)n1	2	-1	16095	3	-7	-13	2.3
O=C(OCc1cc(=O)n2c(n1)sc1ccccc12)c1ccc(O)cc1O	·	·	3633	·	7	-5	·
CN(Cc1ccccc1)C(=O)COC(=O)c1ccc(=O)n(Cc2ccccc2)n1	2	6	6122	3	6	-2	4.6
COC(=O)NN=C(C)c1ccccc1OC(F)F	14	21	·	2	·	·	-1.8
COCCN(Cc1ccccc1)C(=O)C1CCN(S(=O)(=O)c2ccc(OC)c(OC)c2)CC1	8	-4	6283	3	2	-113	0.8
N#C/C(=C(/O)CN1CCCCC1)c1nc(-c2ccc(Cl)cc2)cs1	2	-5	9429	0	0	-27	7.1
COc1ccc(C(=O)N2CCCc3ccccc32)cc1OC	0	-2	4138	17	-7	·	0.4
C/C1=C\[C@@H](C)C/C=C/[C@H]2[C@@H]3O[C@]3(C)[C@@H](C)[C@H]3[C@H](Cc4c[nH]c5ccccc45)NC(=O)[C@]32C(=O)/C=C/C(=O)[C@@H]1O	·	·	4765	·	32	8	·
Cc1cc(C(=O)NN=Cc2ccc(-c3ccc([N+](=O)[O-])cc3C)o2)n[nH]1	5	2	·	4	·	·	5.1
Cc1sc2nc(-c3ccncc3)[nH]c(=O)c2c1-c1ccccc1	11	6	·	-1	16	·	6.3
O=C(NCCCN1CCOCC1)c1ccc(Br)cc1	·	·	2437	8	4	-17	-4.5
COC(=O)c1sc2nc(-c3ccccc3)nc(N3CCN(C)CC3)c2c1C	-3	24	3164	-7	-4	-10	1.4
O=C(NCCO)c1ccc(-c2nnc(Nc3ccc(O)cc3)c3ccccc23)cc1	-14	3	3456	5	-7	2	2.2
COc1ccc(C(=O)NCc2nnc(SCC(=O)N3CCC(C)CC3)o2)cc1	5	-1	2469	2	-15	-7	0.4
CSc1sc(C(=O)Nc2ccc(F)cc2F)c2c1C=CCC2	3	11	4463	-1	-6	-11	-3.8
O=C(Nc1ccncc1)c1c(Cl)cccc1Cl	-6	7	3476	3	0	7	0.0
CCc1ccc(/C=C2\SC(=S)N(CCCC(=O)Nc3ccc(C(=O)O)cc3)C2=O)cc1	·	·	5921	·	-4	27	·
COc1cccc(CN2CCN(S(=O)(=O)c3ccc(NC(C)=O)cc3)CC2)c1OC	14	-1	4403	4	-1	-25	0.8
Cc1ccc(S(=O)(=O)NCCC(=O)NCc2ccccc2)cc1	7	2	21858*	9	0	-14	0.1
COCCOC(=O)C1=C(C)N(c2ccccc2)C(=O)NC1c1cccc([N+](=O)[O-])c1 (stereo not drawn)	·	·	2200	·	1	-21	·
CC(=O)N1CC2([N+](=O)[O-])CN(C(C)=O)CC([N+](=O)[O-])(C1)C2(C)C	-1	-3	3616	10	11	-7	2.4
Cc1ccc(-n2c(O)c(C=NCc3ccccn3)c3ccccc3c2=O)cc1C	1	18	1982	-6	-6	-6	19
CCOc1ccc2nc(NC(=O)CN3CCN(C)CC3)sc2c1	·	·	4044	0	-2	-3	4.2
O=[N+]([O-])c1c(NCCCO)cc(Sc2ccc(Cl)cc2)c2nonc12	17	11	10669	38	-3	-19	30
CCn1c(SCC(=O)c2[nH]c(C)c(C(C)=O)c2C)nnc1-c1cccs1	3	9	9904	0	15	-7	5.2
CCOC(=O)N1CCN(C(=O)CSc2nnc(-c3ccccc3OC)o2)CC1	·	·	5767	0	-9	2	3.6
O=C(CCCC(=O)N(c1ccc(F)cc1)C(C(=O)NC1CCCC1)c1ccc(O)cc1)Nc1ccccn1 (stereo not drawn)	-1	3	3007	12	-11	-16	-1.6
O=S(=O)(Nc1ccc2c(c1)nc1n2CCN(Cc2ccccc2)C1)c1ccccc1	8	14	7297	1	4	-21	6.5
Cc1ccc(C(=O)N/C(=C/c2ccco2)C(=O)Nc2cccc(C(=O)O)c2)cc1	2	-8	·	0	-2	·	0.5
Cc1nc2cc(-c3cccc(F)c3)nn2c(C)c1CCC(=O)N1CCC2(CC1)OCCO2	-5	1	?	4	-3	13	5.4
O=S(=O)(c1cccc(F)c1)N1CCN(C(=S)NCC2CCCO2)CC1 (stereo not drawn)	9	4	4215	11	-10	-18	1.3
Cc1ccccc1CN1C(=O)[C@@H]2Cc3c([nH]c4ccccc34)C(C)(C)N2C1=O	·	·	3378	·	-14	-11	·
O=C(COC(=O)CCc1ccccc1)NCc1ccccc1	0	1	5193	4	·	-11	6.1
CSc1nncn1N=Cc1ccccc1F	6	14	·	-3	·	·	2.8
CC(=O)NCCn1c(SCc2ccccc2C)nc2ccccc2c1=O	-1	4	7911	-11	16	-19	1.2
N/C(=N\OC(=O)c1ccccc1Br)c1cccc([N+](=O)[O-])c1	·	·	3010	·	-9	-78	·
CC(=O)NC1(C(F)(F)F)C(=O)Nc2c1c(=O)[nH]c(=O)n2-c1ccccc1 (stereo not drawn)	14	8	5234	1	-4	-36	4.1
O=C(Nc1ccccc1)O/N=C1/CCCc2occc21	·	·	4996	·	-4	-44	·
CCc1ccc2nc(NC(=O)Cn3cnc4ccccc4c3=O)sc2c1	6	3	4258	7	8	-37	7.6
Cc1cc(C)nc(-n2nc(C)c(Sc3ccc(F)cc3)c2N)n1	9	3	11191	-5	1	-98	4.1
Cc1ccccc1-n1c(SCC(=O)N2CCOCC2)nc(O)cc1=O	2	-14	21580*	4	-5	1	1.7
Cc1cc(C(F)(F)F)nc(NCc2ccc(F)cc2)n1	5	2	4362	-12	-4	-26	4.2
Cc1ccc(NC(=O)CN(C)Cc2ccc(F)cc2)c([N+](=O)[O-])c1	12	3	9283	-17	-9	-29	6.6
Nc1cc(C(=O)N/N=C/c2cccc([N+](=O)[O-])c2)n[nH]c1=O	·	·	5033	·	18	-7	·
COc1ccc(CC(=O)OCC(=O)NCC2CCCO2)cc1OC (stereo not drawn)	8	7	·	3	·	-18	-2.7
C=CCOc1ccc(/C=C2/C(=N)N3N=C(CC(=O)N4CCCC4)SC3=NC2=O)cc1OC	0	0	5488	6	0	-11	8.1
COc1ccc(CC(=S)N2CCOCC2)cc1	-80	-10	3260	-7	-6	-10	7.0
CCCCN(C)CCCN1C(=O)C2C(C(=O)Nc3cccc(OC)c3)C3C=CC2(O3)C1C(=O)NC1CCCCC1C (stereo not drawn)	6	-7	3227	7	2	-6	5.1
O=c1onc(-c2cccs2)n1Cc1ccccc1	-3	7	10483	5	-5	-16	4.4
CCc1ccc(N2CC(C(=O)OCC(=O)NC3CCS(=O)(=O)C3)CC2=O)cc1 (stereo not drawn)	11	14	9284	1	6	-61	4.7
CCN(CC(=O)NCCc1ccc(S(N)(=O)=O)cc1)Cc1ccccc1	3	-11	5029	8	1	8	3.2
COc1ccc(NC(=O)N2CCCC(C(=O)NCc3ccccc3F)C2)cc1 (stereo not drawn)	18	3	6552	7	13	-22	1.0
CCOC(=O)c1cccc(NC(=O)CSc2nnc(C3CCCCC3)n2C)c1	16	6	4027	1	-1	-29	1.6
CC1CCCC(NC(=O)COC(=O)c2cccs2)C1C (stereo not drawn)	2	1	6434	3	·	-8	6.0
Cc1ccc(NC2CCCN(C(=O)CCN3CCOCC3)C2)cc1C (stereo not drawn)	7	7	5569	6	8	-14	1.9

Next records.
smiles	Mtb hypoxia inh	Mtb hypoxia inh growth	Autofluor counter	ugtP null kill	BJeLR viability	PrP UTR inh	Sa RN4220 lethal
CCOC(=O)C1=C(C)NC(=O)NC1c1ccc(OC(=O)c2ccco2)cc1 (stereo not drawn)	8	3	·	-2	-7	-17	-13
O=C(Nc1cccc(F)c1)Nc1ccnn1C1CCN(C(=O)CCN2CCCO2)CC1	1	-1	5585	5	10	-16	-1.5
Cc1c(C(c2ccc(F)cc2)c2c(O)c3ccccc3oc2=O)c(=O)n(-c2ccccc2)n1C (stereo not drawn)	3	11	2457	8	6	5	-0.2
Cc1ccc(OCc2ccc(Br)cc2)c([N+](=O)[O-])n1	16	4	·	4	8	·	5.7
COc1ccc(NS(=O)(=O)c2ccc(NS(=O)(=O)c3cccs3)cc2)c(OC)c1	10	2	3633	0	4	-16	-0.4
CCNc1nc2c(c(=O)[nH]c(=O)n2C)n1Cc1ccc(F)cc1	-6	9	5917	-6	3	-47	2.9
Fc1ccc(COc2ccc(C(=S)N3CCCC3)cc2)cc1	19	5	4188	2	-15	-42	-0.6
COc1ccccc1NC(=O)CN(Cc1ccco1)C(=O)c1ccc(N2CCCC2=O)cc1	5	4	3040	6	·	-33	2.7
CCN(C[C@H]1N[C@@](C)(C(=O)OC)[C@H]2C(=O)N(Cc3ccccc3)C(=O)[C@@H]12)S(=O)(=O)c1ccc(F)cc1	6	-4	3474	4	·	-104	-1.0
CCC(CC)C(=O)OCC(=O)Nc1cccc(S(=O)(=O)N(C)c2ccccc2)c1	-4	-1	4099	7	0	-25	7.6
Cc1nc(NCCNC(=O)c2ccco2)c2c(C)c(C)sc2n1	·	·	4776	1	·	-12	-1.6
Cc1cccc(NC(=S)NC2CC3CCCC(C2)N3Cc2cccs2)c1 (stereo not drawn)	10	4	10759	9	4	-20	2.1
COc1ccccc1-n1c(N)cc(=O)nc1SCC(=O)Nc1cc(C)on1	14	-3	3226	-77	-3	-10	8.7
O=C(/C=C\c1ccccc1[N+](=O)[O-])Nc1ccccc1	-1	8	3931	3	-9	-79	13
O=C(Nc1ccc(N2CCOCC2)cc1)C1CC(=O)N(c2ccc(Cl)cc2)C1 (stereo not drawn)	0	4	4560	1	0	9	9.0
CC(=O)c1ccc(OCC(O)CN2CCC(C)CC2)cc1 (stereo not drawn)	·	·	4192	-8	-3	-16	0.9
COc1ccc(Cl)cc1C(=O)Nc1cccnc1Cl	·	·	4172	·	1	-8	·
CC1CCC2(CC1)NC(=O)N(NC(=O)CCl)C2=O (stereo not drawn)	4	2	4550	0	-1	-18	3.0
C=CCNc1nc(C(=O)OCC(=O)Nc2c(Cl)cccc2C(F)(F)F)cs1	-9	-7	5311	-3	6	-9	2.9
COc1ccc(S(=O)(=O)N2CCN(C3Cc4ccccc4C3)CC2)cc1	4	2	2980	0	-2	-26	4.5
CC1=CC(C)(C)NC(=S)N1c1ccccc1C	8&9	6&-4	4148&3177	5&3	-8	-12&-8	6.4&0.1
COc1ccc(S(=O)(=O)N2CCN(Cc3cc(=O)n4ccccc4n3)CC2)cc1	0	2	8088	4	·	1	0.5
CCN(CC(=O)NCc1ccc(Cl)cc1)C(=O)CCc1ccccc1	0	-9	3182	25	-4	-6	-2.3
c1ccc(C(CN2CCCCC2)Oc2ccccn2)cc1 (stereo not drawn)	6	4	3065	3	·	-28	2.1
OCC#CCSc1nnc(-c2cccc3ccccc23)o1	54*	29*	3011	-5	·	2	9.4
CN(C)C(=O)/C(=C/c1ccc(-c2cccc([N+](=O)[O-])c2)o1)NC(=O)c1ccccc1	13	3	3415	5	-2	3	1.3
NC1=C(c2ccc(F)cc2)C(=O)CS1	-9	8	3212	-9	3	-8	1.3
COc1ccc(S(=O)(=O)N2CCCN(CC(=O)Nc3ccc4c(c3)OCO4)CC2)cc1	·	·	4686	0	·	2	3.6
Cc1ccc(-c2ccc(=O)n(CCC(=O)NCCN3CCCCC3C)n2)cc1 (stereo not drawn)	1	-4	9019	6	2	-8	6.2
C[C@H]1CCC[C@@]2(O[C@@H](CCO)C[C@@H](O)[C@@H]2O)O1	·	·	3972	·	8	-11	·

Assay outcomes as filed in PubChem BioAssay.

Compounds as they come (roughly 4% active in at least one column).
